CBX7 AlphaScr: blocks human CBX7 binding to H3K27me3 peptide; AID 1224903; normalised signal (fraction of DMSO) (no concentration beside the values); AlphaScreen His6-CBX7 / biotin-H3K27me3 peptide binding; active compounds read low; hit rate 1.1% among 66,000; O95931; in the data active = normalised signal below about 0.5;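 also: 100 nL library stock added to about 20 µL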
Target sequence (O95931 whole entry, looked up): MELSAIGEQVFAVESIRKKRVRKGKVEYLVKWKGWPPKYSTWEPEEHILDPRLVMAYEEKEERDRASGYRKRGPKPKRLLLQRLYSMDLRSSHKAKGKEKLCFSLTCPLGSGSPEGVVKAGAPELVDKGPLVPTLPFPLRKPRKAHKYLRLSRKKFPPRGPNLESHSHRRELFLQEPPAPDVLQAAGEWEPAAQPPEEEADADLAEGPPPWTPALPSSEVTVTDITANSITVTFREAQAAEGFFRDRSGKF
CBX7 AlphaScr z-score: further read-out of CBX7 AlphaScr, marked with its call; z-score; measured here: z-score of CBX7 signal; some inactives read as strong as hits; reference of the scale not given here;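 same signal on another scale; lower means less binding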
Active calls of the source: *; & = joins results of further samples. These rows are one share of the data. The share of hits here may be higher or lower than overall.

| SMILES | CBX7 AlphaScr z-score | CBX7 AlphaScr |
| --- | --- | --- |
| O=C(Cc1ccccc1)Nc1ccc2oc(-c3ccc(Cl)cc3Cl)nc2c1 | 0.73 | 1.1 |
| CCN(CCCNC(=O)CC(C(=O)N1CCc2ccccc21)n1ccnc1)c1cccc(C)c1 (stereo not given) | -19* | 0.23* |
| CCSc1oc(-c2ccc(F)cc2)nc1S(=O)(=O)c1ccc(Br)cc1 | 0.011 | 1 |
| CCCN(CCC)c1c(N2CCN(C(=O)OCC)CC2)c(=O)c1=O | 0.77 | 1 |
| O=C(CCc1ccccc1)NCCc1nc2ccccc2[nH]1 | 0.57 | 1 |
| CCCC(=O)N1c2ccccc2NC2=C(C(=O)CCC2)C1c1ccccc1 (stereo not given) | 0.88 | 1 |
| Cc1c(NC(=O)COc2ccc(C3CCCCC3)cc2)cccc1-c1nc2ncccc2o1 | -0.12 | 1 |
| CN(C)CCNC(=O)Cn1nc(C(F)F)cc1C1CC1 | -0.0036 | 1 |
| CCC(C)(C(=O)NC1CCCC1)N(C(=O)c1cnccn1)c1ccccc1 (stereo not given) | 1 | 1.1 |
| Cc1cccc(NC(=O)c2ccc(COc3ccc(Br)cc3)cc2)n1 | 0.19 | 1.1 |
| CCCSCCCNC(=O)CN1C(=O)CCSc2ccccc21 | -1.3 | 0.9 |
| CCC(C)NC(=O)CSCc1nc(-c2cccc(C)c2)oc1C (stereo not given) | -0.28 | 0.98 |
| COc1ccc(NC(=O)c2cnc3ccccc3n2)cc1 | 0.78 | 1.1 |
| O=C1c2ccccc2C(Nc2cccnc2)N1c1ccccn1 (stereo not given) | 0.63 | 1 |
| O=C1Nc2cc(C(=O)N3CC=C(c4ccccc4)CC3)ccc2Nc2ccccc21 | -2.8 | 0.65 |
| COc1ccc2[nH]c(C)c(CCNC(=O)c3ccc(F)cc3)c2c1 | -4 | 0.78 |
| CCOC(=O)c1cccc(NC(=O)Cn2nc(Cc3cccnc3)c3ccccc3c2=O)c1 | -0.27 | 0.79 |
| COCCNC(=O)c1ccc2nc(N3CCC(C)CC3)sc2c1 | -0.25 | 0.99 |
| COc1ccc(C2CC(=O)N(C)c3ccccc3S2)cc1OC (stereo not given) | 0.51 | 1 |
| CCC(C)NC(=O)c1ccc2c(c1)N(Cc1cccc(Cl)c1)C(=O)c1ccccc1S2(=O)=O (stereo not given) | -0.4 | 0.94 |
| Cc1cccc2c1-c1sc(C(=O)N3CCCN(Cc4ccccc4Cl)C3)cc1CO2 | 6.1 | 1.2 |
| Cc1ccc(CNC(=O)CN2CCN(Cc3ccccc3)C2=O)cc1 | -0.57 | 0.96 |
| COc1ccccc1NC(=O)c1cnc(Nc2nc3ccccc3o2)nc1C | 0.26 | 1.1 |
| COc1ccccc1-c1cc(C(F)(F)F)nc(N2CCN(C)CC2)n1 | -4 | 0.92 |
| COc1ccc(C2CC(=O)N(CC(=O)Nc3ccc4c(c3)OCO4)c3ccccc3S2)cc1OC (stereo not given) | -2.2 | 0.85 |
| CCOc1ccc(-c2nnc(SCC(=O)Nc3ccccc3)c3ccccc23)cc1 | -0.022 | 1 |
| CCCCCNC(=O)c1c(-c2ccccc2)noc1C | -0.21 | 0.98 |
| Cc1noc(C)c1S(=O)(=O)N1CCCC(C(=O)N2CCN(c3cccc(C(F)(F)F)c3)CC2)C1 (stereo not given) | 1.9 | 1.1 |
| COc1ccc(C(C(=O)Nc2ccc(C(C)C)cc2)N2CC(=O)Nc3ccccc32)cc1 (stereo not given) | -1.6 | 0.74 |
| O=C(c1cc(-c2ccccc2O)on1)N1CCCCC1 | 0.091 | 1.1 |
| O=C(Nc1cccc(F)c1)c1oc2ccccc2c1NC(=O)C1CCCC1 | 0.054 | 1 |
| CCC(=O)N1CCc2cc(S(=O)(=O)NC(Cc3ccccc3)C(=O)N3CCCCCC3)ccc21 (stereo not given) | 0.61 | 1 |
| Cc1nn(-c2ccccc2)c2sc(C(=O)Nc3ccc(C)c4ncccc34)cc12 | 1.8 | 1.1 |
| O=C(C1CC1)N1CCc2cc(S(=O)(=O)Nc3cccc(C(F)(F)F)c3)ccc21 | -2.2 | 0.93 |
| NCC(CCN1CCCCC1)(c1ccccc1)c1ccccc1 | -0.054 | 1 |
| COc1cccc(-c2nn(C)c3sc(C(=O)Nc4ccc(Oc5ccccc5)cc4)cc23)c1 | 0.33 | 1 |
| CCOC(=O)c1c[nH]c2c(F)cccc2c1=O | 2.1 | 1.1 |
| COc1cc2c(cc1OC)C(C(=O)NC1CCCCC1)C(c1ccccc1F)N(C)C2=O (stereo not given) | -0.27 | 0.98 |
| COc1ccc(C2CC(=O)N(Cc3ccccc3)c3ccccc3S2)cc1OC (stereo not given) | -0.68 | 0.95 |
| Cc1cccc(NC(=O)c2ccc(CNc3c(N4CCC(C)CC4)c(=O)c3=O)cc2)c1 | 2 | 1.1 |
| CCn1cc(CNC(=O)c2c(-c3c(Cl)cccc3Cl)noc2C)c(C)n1 | 0.42 | 1 |
| CCN(CC)S(=O)(=O)c1cccc(C(=O)Nc2nc(-c3ccccc3)cs2)c1 | 0.89 | 1 |
| CCCn1c(CNC(=O)COC)nc2ccccc21 | -10 | 0.72 |
| C#CCOc1ccc(-c2nnc(Nc3cccc(O)c3)c3ccccc23)cc1 | -0.69 | 0.85 |
| Cc1ccc(-n2nc3c(c2NC(=O)Cc2ccc(F)cc2)CSC3)c(C)c1 | 1 | 1 |
| COc1ccc(CNC(=O)c2cc(-c3ccc(O)cc3)on2)cc1 | 1.1 | 1 |
| CCCOc1ccc(N2C(=O)CC(NCCCc3ccccc3)C2=O)cc1 (stereo not given) | 0.0055 | 1 |
| O=C(NC1CCCC1)C1CCCN1S(=O)(=O)c1cccc2cccnc12 (stereo not given) | 1.8 | 1.1 |
| Cc1nc(N2CCc3ccccc3C2)[nH]c(=O)c1CCC(C)C | -0.099 | 1 |
| CCOC(=O)c1c(NC(=O)COc2cccc(C)c2)sc(C)c1C | -0.67 | 0.83 |
| O=C(Cn1cc2c(n1)CCCC2)NCCCc1ccccc1 | 0.45 | 1 |
| CN1CCN(CCCNC(=O)c2ccc3c(c2)N(Cc2c(F)cccc2Cl)C(=O)CS3)CC1 | 2.4 | 1.1 |
| CCOc1ccc(CNCC2(c3ccccc3)CCCC2)cc1OC | -0.26 | 0.89 |
| O=C1CC(c2ccc(Cl)cc2)CC2=C1C(c1cccnc1)Nc1ccccc1N2 (stereo not given) | -1.9&-1 | 0.92&0.94 |
| COc1ccc(CNC(=O)C2c3ccccc3C(=O)N3CCc4cc(OC)c(OC)cc4C23)cc1 (stereo not given) | 2.2 | 1.1 |
| COCCCNC(=O)C1CCCN(Cc2nc(-c3cccc(Cl)c3)oc2C)C1 (stereo not given) | -0.98 | 0.92 |
| CN(CCCNC(=O)CN1C(=O)CC(C)(C)S(=O)(=O)c2ccccc21)C1CCCCC1 | -0.17 | 0.99 |
| COc1ccccc1-c1cc(C(=O)N2CCN(C(c3ccccc3)c3ccccc3)CC2)no1 | -3 | 0.74 |
| COc1cccc(CNc2ncn[nH]2)c1OCc1ccccc1F | 1.1 | 1.1 |
| Cc1noc(C(=O)NC(C)c2ccccc2)c1Cl (stereo not given) | 1.6 | 1 |

Next section:
| SMILES | CBX7 AlphaScr z-score | CBX7 AlphaScr |
| --- | --- | --- |
| CCCc1ccc(OCC(=O)Nc2sc3c(c2C(=O)OCC)CCCC3)cc1 | 6.2 | 1.1 |
| COc1ccc(Br)cc1C(=O)Nc1cc(-c2nc3ncccc3o2)ccc1C | 1 | 1.1 |
| CC(C)NC(=O)CCNC(=O)Cn1ccc2ccccc2c1=O | 0.48 | 1 |
| O=c1[nH]c2ccccc2nc1Cc1cccc(Br)c1 | 5 | 1.2 |
| CCn1cc(CNC(=O)c2cc(-c3ccc(C)c(C)c3)nc3ccccc23)c(C)n1 | 0.32 | 1 |
| CC(NC(=O)c1ccccc1)c1nc2ccccc2n1C(C)C (stereo not given) | -1.5 | 0.87 |
| Clc1ccc(-c2cnc3ccccc3n2)cc1Cl | 0.43 | 1 |
| O=C(CCCN1C(=O)c2cccnc2C1=O)Nc1ccccc1F | -3.3 | 0.81 |
| Cc1nc2ccccc2n1CC(=O)N1CC(=O)Nc2ccccc21 | 0.29 | 1.1 |
| COc1nc(OC)nc(-n2cnc(NC(=O)Nc3cccc(Cl)c3)n2)n1 | -1.3 | 0.86 |
| Cc1nn(C)c(C)c1S(=O)(=O)N(CC(=O)NCc1ccc2c(c1)OCO2)c1ccc(C(C)C)cc1 | 0.47 | 1 |
| Cc1cccc(-c2noc(CN(C(=O)c3c(-c4ccccc4Cl)noc3C)C(C)C)n2)c1 | -0.24 | 0.99 |
| COc1ccc2c(c1)Cc1sc(NC(=O)c3cccc(Br)c3)nc1-2 | 0.37 | 1 |
| CC(=O)N1CCc2cc(S(=O)(=O)NC3CCCC3)ccc21 | 3.1 | 1.3 |
| O=C(Nc1ccc(Br)cc1)c1cc(-c2ccc(F)cc2)on1 | 1.9 | 1 |
| O=C(Nc1ncc(Cc2ccccc2Cl)s1)c1cccc2ccccc12 | -2.1 | 0.9 |
| Cc1nc(-c2cccc(NS(=O)(=O)c3ccc(Cl)cc3)c2)cs1 | -0.29 | 0.9 |
| CCN(CC)CCCNc1nnc(Cc2cccnc2)c2ccccc12 | 0.99 | 1 |
| Cc1ccn2c(Nc3ccc4c(c3)OCCO4)c(-c3ccc(N(C)C)cc3)nc2c1 | -4.1 | 0.89 |
| COc1ccc(-c2[nH]c(-c3ccc(F)cc3)nc2SCC(=O)NC2CCCC2)cc1 | -1.6 | 0.94 |
| O=C(CSc1nccn1-c1ccccc1)Nc1ccc(Cl)c(Cl)c1 | -14 | 0.62 |
| CC1CCCC(C)N1C(=O)CN1C(=O)COc2ccc(S(=O)(=O)N3CCCCCC3)cc21 (stereo not given) | 0.12 | 1 |
| COCCNC(=O)Cn1cnc2sc(C)c(S(=O)(=O)N3CCC(C)CC3)c2c1=O | 3.2 | 1.3 |
| Cc1ccc(CN2CCN(CC(=O)NC3CCCCCCC3)C2=O)cc1 | -1.2 | 0.93 |
| Cc1ccc(Nc2c(-c3ccc(N(C)C)cc3)nc3cnccn23)cc1 | 0.42 | 1 |
| O=C(c1ccc2c(c1)N(Cc1cccc(F)c1)C(=O)c1ccccc1S2)N1CCC2(CC1)OCCO2 | -0.8 | 0.97 |
| C=CCN(C(=O)Cn1c(C(=O)OC)cc2ccsc21)c1ccccc1 | 0.12 | 1 |
| Cc1ccc(-c2nn3cc(-c4ccc(Cl)cc4)c4c3n2CCCC4)cc1 | -0.6 | 0.79 |
| CCC(C(=O)NC1CCCCC1)n1c(SCc2ccc(F)cc2)nc2ccncc21 (stereo not given) | 1.4 | 1 |
| O=C(CSc1nc(-c2cccc(Cl)c2)[nH]c1-c1ccccc1)Nc1nccs1 | 0.49 | 1 |

Copied from the list.
CC1CCCC(C)N1C(=O)CN1C(=O)COc2ccc(S(=O)(=O)N3CCCCCC3)cc21 (stereo not given) @ CBX7 AlphaScr = 1
O=C(c1ccc2c(c1)N(Cc1cccc(F)c1)C(=O)c1ccccc1S2)N1CCC2(CC1)OCCO2 @ CBX7 AlphaScr = 0.97

An excerpt from above in order of the CBX7 AlphaScr z-score value, lowest first:
molecule,CBX7 AlphaScr z-score
O=C(Nc1ncc(Cc2ccccc2Cl)s1)c1cccc2ccccc12,-2.1
C=CCN(C(=O)Cn1c(C(=O)OC)cc2ccsc21)c1ccccc1,0.12
COc1ccc(Br)cc1C(=O)Nc1cc(-c2nc3ncccc3o2)ccc1C,1

Going on with the list.
| SMILES | CBX7 AlphaScr z-score | CBX7 AlphaScr |
| --- | --- | --- |
| COc1ccc(OC)c(NC(=O)CCCOc2cc(=O)n(C)c3ccccc23)c1 | -3.2 | 0.81 |
| COc1ccc(Cc2nc3cc(C)c(C)cc3[nH]c2=O)cc1 | 0.54 | 1 |
| CN(CCNC(=O)c1cc(-c2ccncc2)nc2ccccc12)Cc1ccccc1 | -1.7 | 0.85 |
| CCOc1ccc(N(CC)C(=O)Cc2c(C(=O)O)[nH]c3ccc(Cl)cc23)cc1 | 0.84 | 1 |
| CC(C)NC(=O)C1CCC(=O)N1Cc1ccc(F)cc1 (stereo not given) | 0.45 | 1 |
| CCc1ccc2oc(-c3cccc(NC(=O)c4ccccc4Br)c3)nc2c1 | 0.68 | 1.1 |
| CCCCNS(=O)(=O)c1ccc2nc(-c3cccnc3)cc(C(=O)NCCCN(CC)CC)c2c1 | 1.1 | 1.1 |
| Cc1cc(C)cc(NC(=O)C2CCCN(S(=O)(=O)c3cccc4cccnc34)C2)c1 (stereo not given) | 1.2 | 1 |
| Cc1nn(CC(=O)NCc2cccs2)c2ccccc12 | 0.075 | 1 |
| CCOc1ccc(-n2cnnn2)cc1S(=O)(=O)NC1CC1 | 0.19 | 1 |
| COc1ccc(-c2cc3nc(C)c(CCC(=O)Nc4cc(Cl)ccc4C)c(C)n3n2)c(OC)c1 | 0.62 | 1 |
| CCN1CCN(CCCNC(=O)c2ccc3nc(N4CCOCC4)sc3c2)CC1 | 0.9 | 1.1 |
| Cc1ccc(C(=O)c2oc3ccccc3c2NC(=O)c2ccc(F)cc2)cc1 | 0.67 | 1.2 |
| CCc1ccccc1N(C)S(=O)(=O)c1ccc2[nH]cc(C(=O)NCCc3ccccc3)c(=O)c2c1 | 0.61 | 1 |
| O=C(CSc1nnc(COc2ccccc2)o1)Nc1cc(C(F)(F)F)ccc1Cl | -1.5 | 0.87 |
| COc1ccc(-c2cc(C(=O)Nc3c(C)nn(Cc4ccccc4)c3C)no2)cc1 | 0.77 | 1.1 |
| Cc1ccccc1OCc1nc(C#N)c(NCCN(C)C)o1 | 0.035 | 1 |
| CC1CCCCN1S(=O)(=O)c1ccc2[nH]c(=O)cc(C(=O)NCCCN3CCCCC3)c2c1 (stereo not given) | 0.48 | 1 |

Arranged by formula weight (lowest first): some entries from above.
| SMILES | CBX7 AlphaScr z-score | CBX7 AlphaScr |
| --- | --- | --- |
| O=C(NC1CCCC1)C1CCCN1S(=O)(=O)c1cccc2cccnc12 (stereo not given) | 1.8 | 1.1 |
| O=C(Nc1ncc(Cc2ccccc2Cl)s1)c1cccc2ccccc12 | -2.1 | 0.9 |
| CCC(C(=O)NC1CCCCC1)n1c(SCc2ccc(F)cc2)nc2ccncc21 (stereo not given) | 1.4 | 1 |
